High-throughput results: PubChem, National Center for Advancing Translational Sciences (NCATS)
D2 potentiator: positive allosteric modulators of human D2 dopamine receptor; 360,000 compounds, 0.23% hits; P14416; potentiation, % (concentration not given with the values); DiscoveRx D2 beta-arrestin cells, luminescence, 90 min; 100% = 57 uM dopamine signal; AID 624464; active = potentiation of 50% or more; inconclusive = 30% to 50%; inactive = 30% or less;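 further: tested on top of an EC20 dose of dopamine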
Target sequence (P14416 whole entry, looked up): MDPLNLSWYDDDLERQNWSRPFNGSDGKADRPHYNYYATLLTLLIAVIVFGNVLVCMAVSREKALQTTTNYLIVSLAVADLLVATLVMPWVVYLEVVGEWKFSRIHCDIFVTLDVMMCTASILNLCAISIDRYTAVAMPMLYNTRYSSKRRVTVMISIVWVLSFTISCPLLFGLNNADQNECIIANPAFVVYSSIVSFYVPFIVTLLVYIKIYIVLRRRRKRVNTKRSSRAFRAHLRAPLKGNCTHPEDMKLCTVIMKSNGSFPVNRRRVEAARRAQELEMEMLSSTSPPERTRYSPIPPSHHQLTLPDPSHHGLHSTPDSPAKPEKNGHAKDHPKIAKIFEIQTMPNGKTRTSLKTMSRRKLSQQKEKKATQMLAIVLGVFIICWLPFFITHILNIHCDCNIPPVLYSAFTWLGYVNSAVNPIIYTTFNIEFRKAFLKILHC
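PathHunter beta-arrestin assay in DiscoveRx D2 cells. Compounds were added with an EC20 of dopamine (50 nM final) for 90 min at 37 deg C. Luminescence was read 1 h after detection reagent, with 57 uM dopamine as the EC100 control.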
PINK1 modulator: PINK1 expression modulation; Potency, µM (titrated, usually from 76.6 µM), for the others: at the top dose activation (PINK1 increase), usual class: activators; AID 624263; 410,000 compounds, 0.2% hits; PINK1 immunofluorescence, high-content cytometry, 24 h; active = well fitted activation curve with a large enough effect; inconclusive = small, poorly fitted or top-dose-only effect; inactive = flat fitted curve, though single readings scatter; cell line not stated here;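 further: potency means the concentration at half of the fitted maximal effect; % of control where 0% means no effect; nearly all actives have a fitted effect of over 65% in size; a mitochondrial uncoupler was the plate control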
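Stable cell line treated 24 h with compounds at 5 concentrations (CCCP controls), then fixed and immunostained for PINK1 plus nuclear and cell stains; PINK1 immunofluorescence quantified by laser-scanning microplate cytometry.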
Six1-Eya2 inh: inhibitors of human Six1/Eya2 interaction. Q15475+O00167. AlphaScreen GST-Six1/His-Eya2 binding, biochemical; hits give low values; control for the full effect not named in the record. activity change, % (concentration not given with the values). 360,000 compounds, 0.56% hits. AID 651725; in the data active = activity change below about -65%; inconclusive = about -30% to -65%; inactive = above about -30%; further: on the % scale 0 is the no-effect control and ±100 the full control effect
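Homogeneous AlphaScreen proximity assay pairing GST-Six1 with His-tagged Eya2 (added as 5X mix: 250 nM and 500 nM) in 50 mM Tris pH 8.0, 300 mM NaCl, 1 mM TCEP. Glutathione donor and nickel acceptor beads; 1 h, 37 °C, dark.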
D2 ag: activates the human D2 dopamine receptor. P14416. DiscoveRx PathHunter D2 beta-arrestin, luminescence, 90 min; 100% = 57 uM dopamine signal. activation, % (no concentration beside the values). 360,000 compounds, 0.084% hits. AID 624465; in the data active = activation above about 40%; inconclusive = about 15% to 40%; inactive = below about 15%; further: compound concentration not given in the record; the text of the record calls up to 30% inactive
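DiscoveRx PathHunter D2 beta-arrestin cells (2,100/well) attached overnight, then compound-stimulated 90 min at 37 C in HBSS/10 mM HEPES/0.1% Tween-20 buffer; beta-galactosidase complementation read by luminescence after 1 h at ambient temperature. Dopamine 57 uM final (EC100) as control.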
Sfp inh: inhibitors of Bacillus subtilis Sfp phosphopantetheinyl transferase; Biochemical Sfp PPTase activity, qHTS; AID 1490; 310,000 compounds, 3.5% hits; Potency, µM, for inactives: max response, negative = inhibition, actives largely listed as inhibitors; active means well fitted inhibition curve with a large enough effect; inconclusive means small, poorly fitted or top-dose-only effect, or another doubt; inactive means no such curve, though single readings can be large or run the other way;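 further: the enzyme is Sfp with the accession as filed and its product quenches rhodamine fluorescence; potency means the concentration at half of the fitted maximal effect; 0% = enzyme reaction without inhibitor and -100% = no enzyme wells; top concentration of the series not given in the record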
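After 15 min at room temperature with compound, 15 nM Sfp received 5 uM rhodamine-CoA plus 12.5 uM BHQ-2-ybbR (50 mM Hepes pH 7.6, 10 mM MgCl2). Rate came from the fluorescence difference over 30 min, ex 525/em 598 nm.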
TRPV1 potentiator: human TRPV1 potentiation. TRPV1-expressing cells, Fluo-8 calcium influx, capsaicin EC20 potentiation; host cell line not named in the record; control for the full effect not named in the record. potentiation, % at 8.33 µM. 320,000 compounds, 0.02% hits; active means potentiation above 80%; inconclusive means 30% to 80%; inactive means below 30%; further: 0% is about no effect
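TRPV1-expressing cells were cultured overnight at 35.5C and loaded with Fluo-8 calcium dye for 40 to 90 min at room temperature. After a 10 s baseline, compound was added and calcium influx was read kinetically for 3 min (ex 480/em 520 nm).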
CtBP-E1A inh: inhibitors of CtBP/E1A interaction; AID 651724; AlphaScreen GST-E1A/His-CtBP binding, 1536-well; hits give low values; control for the full effect not named in the record; 340,000 compounds, 0.49% hits; activity change, % (no concentration beside the values); in the data active means activity change below about -65%; inconclusive means about -30% to -65%; inactive means above about -30%; further: on the % scale 0 is the no-effect control and ±100 the full control effect
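GST-E1A and His-tagged CtBP (125 nM each as 5X stock) were preincubated with pin-transferred compound for 2 h at 37 °C in the dark, then glutathione donor and nickel acceptor beads were added for 1 h before AlphaScreen reading.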
An asterisk follows results filed as active; ? = inconclusive; / = no result given; & = joins results of further samples; [ ] = remark or other dose. Hits appear at their usual frequency; any-hit rate near 3.7%.

The line under a structure holds: D2 potentiator, PINK1 modulator, Six1-Eya2 inh, D2 ag, Sfp inh, TRPV1 potentiator, CtBP-E1A inh
1. CN(CC(=O)Nc1ccc(F)c(F)c1F)C(=O)CC1OC(=O)c2ccccc21 (stereo not drawn)
  -9, 2.5%, -4, -1.6, /, 16, -20
2. O=C(NC(=S)NCc1nc2ccccc2[nH]1)c1ccc(F)cc1
  -1, 5.0%, -9, -0.9, -1%, -8, -5
3. CCCCSc1nnc2c(n1)[nH]c1ccccc12
  -2, -0.9%[38.3 µM], -2, -1.0, 15%, 0, 4
4. O=C(NCc1ccco1)c1ccc(Cn2cc([N+](=O)[O-])cn2)o1
  2, -0.5%[38.3 µM], 0, 0.6, 5%, 4, -3
5. CC1(C)Cc2cccc(OCC(=O)OCC(=O)Nc3ccc(C(N)=O)cc3)c2O1
  8, -2.1%, 0, -0.2, /, -6, -6
6. O=C(COC(=O)/C=C/c1cccc(C(F)(F)F)c1)Nc1cccc2ccccc12
  7, 2.2%, 7, -0.5, -2%, 19, 6
7. Cn1c(=O)oc2cc(S(=O)(=O)N3CCN(c4ccccc4)CC3)ccc21
  -7, ?, 0, -2.5, 7%, -6, 4
8. Cc1cccc2sc(N(CCCN(C)C)C(=O)c3ccc4ncsc4c3)nc12
  -16, 0.5%, -11, -3.0, -24%, -8, /
9. Cc1nn(-c2ccc(C(=O)N3CCN(S(=O)(=O)c4ccccc4C(F)(F)F)CC3)cc2)c(C)c1Cl
  3, -0.9%, 8, ?, /, 11, -11
10. Cc1cccc(SCC(=O)Nc2ccccc2[N+](=O)[O-])c1
  -9, 5.6%, -27, -4.0, -6%, 1, ?
11. CCOC(=O)c1c(S(=O)(=O)N2CCCC(C(=O)Nc3ncccc3C)C2)c(C)n(C)c1C (stereo not drawn)
  0, 0.8%&0.8%, 0, 5.2, 21%, 3, 2
12. COc1ccc(-c2c(C(C)=O)c(C)nc3sc4c(=O)n(-c5ccc(C)cc5)nnc4c23)cc1
  8, -1.1%, 12, -2.0, -4%, /, 2
13. O=c1c2nnn(Cc3ccc(Cl)cc3)c2ncn1Cc1ccc(F)cc1
  3, -0.7%[38.3 µM], -1, 3.3, 14%, 21, 0
14. COC(=O)COc1ccc(NS(=O)(=O)c2cccc([N+](=O)[O-])c2)cc1
  9, 1.0%, -3, 1.9, 9%, 4, 3
15. CCc1cnc(Nc2nc(C(N)Cc3ccc(F)cc3)cs2)nc1 (stereo not drawn)
  -6, -1.2%, ?, 3.5, /, /, -71*
16. COC(=O)c1ccc(Cn2c(C)c(C(=O)Nc3cccc(Oc4ccccc4)c3)sc2=O)o1
  -4, 0.2%, -8, 5.9, /, /, -6
17. O=Cc1sc(=O)n(Cc2cccc(C(=O)O)c2)c1Cl
  3, 0.3%, -1, 0.6, 45µM*, 9, 14
18. CCN1C(=O)C(=O)N(CC(=O)Nc2cc(C)ccc2C)C1=O
  -4, 1.1%, 6, -2.0, /, 4, 6
19. Cc1nc(SCC(=O)c2ccc(F)c(F)c2)[nH]c(=O)c1Oc1ccc(F)cc1
  0, -0.2%, 0, -1.6, -25%, 8, 4
20. O=C(c1cccc(COCC(F)(F)C(F)F)c1)N1CCN(c2ccccc2)CC1
  6, 10%[38.3 µM], 1, 1.9, -13%, -21, 4
21. CS(=O)(=O)N(CCc1ccccc1)CC(=O)Nc1ccc2c(c1)OCO2
  -5, 1.6%, -3, -0.9, 0%, -1, -10
22. CCOC(=O)c1ccc(NC(=S)NCC(O)c2ccccc2)cc1 (stereo not drawn)
  -11, 2.4%, -4, 0.7, 18%, 0, 2
23. CCOc1ccc(C2C(C#N)=C(N)N3C(=C2C#N)Sc2ccccc23)cc1 (stereo not drawn)
  -6, 15%[38.3 µM], 16, -1.3, -3%, 26, 13
24. Cn1nc(C(C)(C)C)cc1C(=O)NNC(=O)c1ccccc1Cl
  16, 1.5%, -5, 1.6, 21%, /, 0
25. Cc1cc(NS(=O)(=O)c2ccc(NC(=S)NCc3ccccc3)cc2)no1
  0, -2.0%, -3, 9.0, 0%, -3, 7
26. COC(=O)Cn1c(=NC(=O)CN2C(=O)CCC2=O)sc2cc(S(N)(=O)=O)ccc21
  -26, 0.6%, -1, -2.6, 2%, -4, -1
27. NC(=O)CCC(C(=O)O)N1C(=O)C2C3CCC(C3)C2C1=O (stereo not drawn)
  -4, 3.5%, 1, -5.0, /, /, 1
28. Cc1cnc(C(=O)OCC(=O)Nc2cccc(S(=O)(=O)N3CCOCC3)c2)cn1
  5, 1.2%, -2, -0.2, /, /, 2
29. O=C1SCCN1N=Cc1ccc([N+](=O)[O-])o1
  -1, 0.7%, -7, -0.6, /, /, -12
30. CCOc1ccc(NC(=S)Nc2ccc(Br)cc2Cl)cc1
  -7, -0.1%, 3, -8.7, 40µM*, 14, -9
31. O=C(Oc1ccccc1)c1c(Cl)cccc1P(=O)(O)O
  -18, 0.8%, 0, 0.8, 14%, 2, 0
32. COc1ccc2c(c1)CCC(C)N2C(=O)C(=O)c1c[nH]c2ccccc12 (stereo not drawn)
  -5, 3.9%, -4, -0.4, 14%, ?, 7
33. CN(C)S(=O)(=O)c1cccc(NC(=O)CCCSc2ccccc2)c1
  -10, 1.7%, 0, -1.5, -4%, 6, -2
34. CNC(=S)NNC(=O)c1ccccc1F
  -7, 0.4%, -1, -5.6, 9%, 27, 2
35. CCCNc1c(N)n(-c2ccccc2)c(=O)[nH]c1=O
  -6, -3.7%[38.3 µM], 3, -0.7, -11%, 6, 8
36. COc1cc(Br)cc2cc(C(=O)N3CCOCC3)c(=O)oc12
  -2, 0.2%, 1, 1.7, -4%, -23, -18
37. CC(=O)Nc1cccc(NC(=O)c2c(-c3ccccc3)noc2C)c1
  12, -0.2%, -6, -0.5, 12%, 21, 4
38. COc1cc(/C=N/NC(=O)CNS(=O)(=O)c2ccc(C)cc2)cc(OC)c1OC
  1, 2.1%, -16, 0.7, /, /, -4
39. CC(C)Cc1ccc(C(C)C(=O)Nc2ncccn2)cc1 (stereo not drawn)
  -4, -0.6%, 17, -4.9, 19%, 0, 1
40. Cc1ccc(/C=C/C(=O)Nn2cnnc2)cc1
  -5, 3.8%, 3, -2.1, 20%, -10, -11
41. CCCc1nnc(NC(=O)CN2CCOCC2)s1
  2, -4.2%, 6, -2.5, 4%, -13, -6
42. O=C(CCc1ccc(S(=O)(=O)NCc2ccccc2)cc1)NCc1cccnc1
  10, -0.5%, 7, -8.0, 24%, -3, 10
43. O=C(COC(=O)Cc1ccc(F)cc1)NC1CCCCC1
  6, -0.1%, 0, -0.4, /, -24, 4
44. CC(C)c1ccc(NC(=O)c2sccc2-n2cccc2)cc1
  -4, ?, -4, -5.8, -13%, -9, 4
45. COc1ccc2oc(=O)c(-c3nnc(N)s3)cc2c1
  2, 2.4%, ?, -2.7, -10%, 8, -29
46. Nc1ncnc2c1ncn2[C@@H]1O[C@H](CNS(=O)(=O)C2CC2)[C@@H](O)[C@H]1O
  -2, 0.6%, -2, -1.0, /, /, 5
47. N=c1c(S(=O)(=O)c2ccc(F)cc2)cc2c(=O)n3ccccc3nc2n1CC1CCCO1 (stereo not drawn)
  -6, 0.4%, 4, 1.4, 0%, 7, 0
48. C/C(=N\NC(=O)c1cccs1)c1ccc2ccccc2c1
  -18, 5.4%, -8, 4.1, 4%, 7, -5
49. Cc1ccccc1C(OCCN(C)C)c1ccccc1 (stereo not drawn)
  /, 0.4%&-0.9%&0.8%, 5&-5, /, 14%&16%&11%, -6&9, 0&-1
50. COC(=O)CNC(=O)Cn1cnc2sc(C)c(S(=O)(=O)N3CCN(c4ccccc4OC)CC3)c2c1=O
  1, 1.4%, 18, -2.5, 1%, 3, 19

Carrying on:
The line under a structure holds: D2 potentiator, PINK1 modulator, Six1-Eya2 inh, D2 ag, Sfp inh, TRPV1 potentiator, CtBP-E1A inh
51. O=C(CNC(=O)c1ccccc1)OCCCOC(=O)CNC(=O)c1ccccc1
  -8, -0.7%, 1, -1.1, 1%, -11, -2
52. O=C(CSc1nc2ccccc2[nH]1)Nc1c(F)c(F)c(F)c(F)c1F
  0, -1.2%, ?, 5.7, -11%, -11, -7
53. O=C1NCCN1Cc1ccccc1
  1, 13%[38.3 µM], 3, 0.0, 11%, 3, 0
54. CC1(CC(=O)N/N=C/c2ccc(-c3ccc(Cl)cc3)o2)OCCO1
  -13, 7.4%, 14, -2.1, 2%, -3, 3
55. Cc1cccc(-n2nc3c(c2NC(=O)c2ccc(Br)o2)CSC3)c1
  -12, 3.6%[38.3 µM], -4, -3.8, ?, 0, -4
56. O=C(Cc1coc2cc(O)ccc12)N1CCN(S(=O)(=O)c2ccc(Br)cc2)CC1
  0, 0.1%, -3, 0.3, /, /, 0
57. COc1ccc(-c2cc3nc(NCC4CCCCC4)n(C)c(=O)c3s2)cc1OC
  19, ?, 4, ?, /, /, 1
58. Cc1ccccc1-c1cnn(-c2cccc([N+](=O)[O-])c2)c1N
  -1, 8.0%, -4, 5.2, -6%, -8, 0
59. Nc1ccc(C#Cc2ccc3oc4ccccc4c(=O)c3c2)cc1
  -3, 2.6%, 7, 0.6, /, /, /
60. COc1ccc(C(CNc2nc(-c3cccnc3)nc3ccccc23)N(C)C)cc1 (stereo not drawn)
  -18, 1.3%, -15, -2.3, 17%, -15, -21
61. Cc1ccc(C(=O)Nc2ccc(N3CCOCC3)cc2)cc1
  -9, 1.4%[38.3 µM], -2, -2.6, 1%, 2, 9
62. Cc1ccc(-c2nnn(CC(=O)NCc3ccccc3)n2)c(-n2cnnn2)c1
  -22, 1.4%, -6, -1.4, 1%, 4, 0
63. C#CCOCCOCCOCCNc1nc(N2CCN(C(=O)[C@H]([C@@H](C)CC)n3cc([C@@H](N)Cc4ccc(O)cc4)nn3)CC2)nc(N2CCN(C(=O)[C@H](Cc3ccc(O)cc3)n3cc([C@@H](N)C(C)CC)nn3)CC2)n1 (stereo partly drawn)
  -24, -1.3%, -18, -2.2, 0%, -1, -21
